# Six1-Eya2 blk – Six1/Eya2 interaction inhibition | actives 0.56% (n = 360,000) | activity change, % (concentration not given with the values) | AlphaScreen GST-Six1/His-Eya2 binding, biochemical; active compounds read low; control for the full effect not named in the record | AID 651725; in the data active = activity change below about -65%; inconclusive = about -30% to -65%; inactive = above about -30%; also: % is scaled to controls: 0 for no effect and ±100 for the full control effect
#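 AlphaScreen luminescence read after one hour at 37 °C in darkness. Pin-transferred compounds met GST-Six1 and His-Eya2 protein (5X stock 250 nM/500 nM) plus glutathione donor and Ni-chelate acceptor beads (5X, 50 ug/mL).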
# TRPML1 agonist – activates the human TRPML1 channel; Q9GZU1; TRPML1-expressing cells, Ca2+ dye fluorescence, FDSS; host cell line not named in the record; reference of the full effect not given here; activation, % (test concentration not listed); actives 0.12% (n = 410,000); AID 624414; in the data active = activation above about 50%; inconclusive = about 30% to 50%; inactive = below about 30%; also: 0% is about no effect; the text of the record puts the active cut at 80%
# Target sequence (Q9GZU1 whole entry, looked up): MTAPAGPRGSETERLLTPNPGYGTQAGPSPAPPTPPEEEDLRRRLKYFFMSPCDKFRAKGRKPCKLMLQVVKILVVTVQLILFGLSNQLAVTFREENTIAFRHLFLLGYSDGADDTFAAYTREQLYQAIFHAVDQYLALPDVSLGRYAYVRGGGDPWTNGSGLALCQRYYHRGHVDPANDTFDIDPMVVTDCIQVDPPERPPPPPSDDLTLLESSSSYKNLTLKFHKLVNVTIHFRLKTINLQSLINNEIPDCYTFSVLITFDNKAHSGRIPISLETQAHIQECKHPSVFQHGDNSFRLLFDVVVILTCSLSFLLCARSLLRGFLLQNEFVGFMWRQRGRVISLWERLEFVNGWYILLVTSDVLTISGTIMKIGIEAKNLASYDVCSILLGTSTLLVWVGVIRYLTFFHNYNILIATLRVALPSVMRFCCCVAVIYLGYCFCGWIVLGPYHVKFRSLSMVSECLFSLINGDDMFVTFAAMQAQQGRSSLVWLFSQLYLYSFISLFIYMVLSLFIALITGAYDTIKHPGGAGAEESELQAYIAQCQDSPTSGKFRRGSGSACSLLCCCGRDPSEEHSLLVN
#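 Calcium fluorescence on an FDSS kinetic reader gave the read-out. Tet-induced TRPML1-DL cells were plated overnight, dye-loaded (Ca8 with quencher, 45-90 min, room temperature, dark), then read 110 s after compound addition, and again 110 s after 4uM final 54-4 (EC80).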
# TRPML1 blocker – inhibitors of human TRPML1 channel; TRPML1-inducible cells, Ca2+ dye fluorescence, FDSS; active compounds read low; inhibition of EC80 agonist-evoked calcium signal; activity change, negative = inhibition, % (concentration not given with the values); actives 0.02% (n = 390,000); in the data active means activity change below about -50%; inconclusive means about -30% to -50%; inactive means above about -30%;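 also: stimulus is agonist 54-4 at its EC80 concentration; % is scaled to controls: 0 for no effect and ±100 for the full control effect; the text of the record puts the active cut at -80%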
#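 TRPML1-DL cells, Tet-induced overnight (~16 h, 37 °C) at 1,500 cells/well, were loaded with Ca8 no-wash dye plus quencher for 45-90 min at room temperature. Compounds were pinned during FDSS kinetic reading; agonist 54-4 at EC80 (4 uM final) then added.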
# CtBP-E1A inh – inhibitors of CtBP/E1A interaction; actives 0.49% (n = 340,000); activity change, % (test concentration not listed); AlphaScreen GST-E1A/His-CtBP binding, 1536-well; active compounds read low; control for the full effect not named in the record; in the data active means activity change below about -65%; inconclusive means about -30% to -65%; inactive means above about -30%; also: % is scaled to controls: 0 for no effect and ±100 for the full control effect
#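 Homogeneous bead-based format: GST-tagged E1A captured on glutathione donor beads, His-tagged CtBP on nickel acceptor beads; compounds precede bead addition by 2 h at 37 °C.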
# TRPV1 potentiator – enhances activation of the human vanilloid receptor TRPV1; TRPV1-expressing cells, Fluo-8 calcium influx, capsaicin EC20 potentiation; host cell line not named in the record; control for the full effect not named in the record; Q8NER1; actives 0.02% (n = 320,000); potentiation, % at 8.33 µM; active means potentiation above 80%; inconclusive means 30% to 80%; inactive means below 30%; also: 0% is about no effect
#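 Cells expressing TRPV1 were dye-loaded with Fluo-8 and read kinetically: 10 s baseline, 3 min after compound (agonist portion), then 2 min after EC20 capsaicin (allosteric enhancer portion). Calcium-bound dye fluorescence at 480/520 nm.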
# D2 potentiator – positive allosteric modulators of human D2 dopamine receptor. DiscoveRx D2 beta-arrestin cells, luminescence, 90 min; 100% = 57 uM dopamine signal. potentiation, % (concentration not given with the values). actives 0.23% (n = 360,000). AID 624464; active = potentiation of 50% or more; inconclusive = 30% to 50%; inactive = 30% or less;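 also: compound concentration not given in the record; tested on top of an EC20 dose of dopamine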
# Target sequence (P14416 whole entry, looked up): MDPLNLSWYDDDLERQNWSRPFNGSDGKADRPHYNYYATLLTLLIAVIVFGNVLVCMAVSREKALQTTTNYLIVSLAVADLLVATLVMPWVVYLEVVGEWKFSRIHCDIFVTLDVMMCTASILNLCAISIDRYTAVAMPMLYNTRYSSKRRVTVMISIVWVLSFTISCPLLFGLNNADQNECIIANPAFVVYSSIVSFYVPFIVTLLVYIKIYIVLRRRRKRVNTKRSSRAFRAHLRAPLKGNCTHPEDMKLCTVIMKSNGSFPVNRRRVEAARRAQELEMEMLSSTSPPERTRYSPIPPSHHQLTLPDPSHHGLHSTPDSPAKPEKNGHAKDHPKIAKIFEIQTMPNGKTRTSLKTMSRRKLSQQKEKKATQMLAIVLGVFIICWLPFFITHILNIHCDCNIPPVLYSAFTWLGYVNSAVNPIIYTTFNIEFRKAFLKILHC
#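 D2 cells co-treated with compound plus 50 nM dopamine (EC20) for 90 min at 37 deg C to detect potentiation. Beta-arrestin recruitment was read as enzyme-fragment luminescence after 1 h at ambient temperature. Full response was set by 57 uM dopamine.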
# * = called active by the depositor; ? = inconclusive; · = no result given.
# Values run as follows: Six1-Eya2 blk	TRPML1 agonist	TRPML1 blocker	CtBP-E1A inh	TRPV1 potentiator	D2 potentiator
- CC(C)(C)c1ccc(S(=O)(=O)NCC(=O)Nc2sc3c(c2C(N)=O)CCCC3)cc1
  2.9	1.4	33.9	5.0	7.7	10.7
- CC(C)CC1C2C(=O)N(c3ccccc3)C(=O)C2ON1c1ccccc1 (stereo not drawn)
  24.5	0.1	-2.8	·	-22.6	-14.0
- COc1ccc(C(=S)N2CCN(C)CC2)cc1Br
  -8.6	-0.7	8.8	-6.8	1.3	-9.3
- COc1ccc(C(=O)CC(C#N)c2ccc3c(c2)OCO3)cc1OC (stereo not drawn)
  -3.4	0.2	-7.7	0.3	·	-3.6
- COc1ccc(CCNC(=O)CSc2nnnn2-c2ccccc2OC)cc1OC
  -1.6	-0.6	3.6	-4.2	?	-17.6
- CCN1C(=O)[C@H]2[C@@H](c3ccc(C)cc3)N[C@]3(CCCN(Cc4ccc(F)cc4)C3=O)[C@H]2C1=O
  0.0	0.1	7.0	-17.9	·	-4.3
- N=C(N)n1ncc2c1CCCC2=O
  -2.8	-0.5	·	4.1	·	·
- Cc1ccccc1N1CCN(CCCOc2ccc3c(C)cc(=O)oc3c2)CC1
  -21.3	0.5	9.4	-13.7	-5.4	-31.5
- O=C(NCCNCc1ccccc1)c1ccco1
  13.1	1.6	20.5	-7.5	·	2.2
- COc1cccc2sc(NNC(=O)COc3ccccc3)nc12
  0.2	1.1	-2.9	·	15.2	-10.5
- O=[N+]([O-])c1ccccc1OCC(O)CNC1CCCC1 (stereo not drawn)
  -1.1	·	·	5.3	2.8	-32.8
- CC(C)N(C(=O)COC(=O)c1ccccc1C(=O)N1CCN(c2ccc(F)cc2)CC1)C(C)C
  -0.7	0.1	8.6	7.4	0.8	-15.6
- COc1ccc(-c2cc(C(=O)Nc3nc4c(C)cccc4s3)c3ccccc3n2)cc1OC
  2.8	0.6	-6.2	5.5	-0.9	-12.3
- CC1(C)Cc2ccccc2C(NNC(=O)c2ccccn2)=N1
  ?	-0.3	0.7	?	-17.9	-18.0
- O=C(COC(=O)CNC(=O)c1ccc(Cl)cc1)Nc1cccc(S(=O)(=O)N2CCCC2)c1
  8.8	2.2	25.6	·	4.4	1.0
- CC(C)c1ccc(S(=O)(=O)N2CCN(C(=O)C3CCCC3)CC2)cc1
  -4.6	-0.6	-1.3	7.4	-8.6	-2.6
- CCSc1nc(-c2ccccc2)nc2c1CCCC2
  3.4	0.2	-11.3	15.8	-5.1	-0.9
- O=C(NNC1CC(=O)N(c2cccc(Cl)c2)C1=O)c1cccnc1 (stereo not drawn)
  12.3	0.5	-11.5	-3.8	16.6	2.1
- CC12CCC(C(=O)N3CCC(Cc4ccccc4)CC3)(C(=O)C1=O)C2(C)C (stereo not drawn)
  -4.3	0.4	76.3	0.0	-5.1	2.4
- S=C(N/N=C/c1ccccc1Cl)Nc1ccccc1
  11.1	1.5	6.9	-0.3	-9.9	-15.8

# 4 entries already listed, ordered by their value in D2 potentiator, largest number first.
SMILES,Six1-Eya2 blk,TRPML1 blocker,CtBP-E1A inh,D2 potentiator
CC(C)(C)c1ccc(S(=O)(=O)NCC(=O)Nc2sc3c(c2C(N)=O)CCCC3)cc1,2.9,33.9,5.0,10.7
O=C(NNC1CC(=O)N(c2cccc(Cl)c2)C1=O)c1cccnc1 (stereo not drawn),12.3,-11.5,-3.8,2.1
COc1ccc(C(=S)N2CCN(C)CC2)cc1Br,-8.6,8.8,-6.8,-9.3
O=[N+]([O-])c1ccccc1OCC(O)CNC1CCCC1 (stereo not drawn),-1.1,·,5.3,-32.8

# The list goes on:
# Values run as follows: Six1-Eya2 blk	TRPML1 agonist	TRPML1 blocker	CtBP-E1A inh	TRPV1 potentiator	D2 potentiator
- CC(C)C12CN3CC(C(C)C)(CN(C1)C3c1ccc([N+](=O)[O-])o1)C2=O (stereo not drawn)
  0.4	1.4	40.4	3.4	1.0	4.0
- Cc1c(-c2ccccc2)[n+](=O)c2c(n1[O-])CCCCC2
  1.5	0.6	-4.9	-2.3	3.0	0.3
- COc1cc2c(C)nc3c(c(C)nn3-c3ccccc3)c2cc1OC
  -4.5	-0.1	10.4	-2.7	-5.2	9.7
- O=C(Nc1ccc(C(=O)N2CCCCC2)cc1)c1ccccc1
  6.1	0.8	1.9	12.6	·	3.0
- CC(CNC(=O)c1cccs1)c1ccc([N+](=O)[O-])cc1 (stereo not drawn)
  0.2	1.9	-2.6	-19.0	-14.0	-14.7
- O=C(NCCCc1ccncc1)C1CCC(=O)N(CCc2cccc(F)c2)C1 (stereo not drawn)
  -0.1	-0.5	-1.2	-6.5	5.9	-4.3
- CC1(C)CC(=O)C2=C(C1)N=C1SCCC(=O)N1C2c1ccccc1 (stereo not drawn)
  -0.4	0.7	-11.9	0.0	-15.2	-11.1
- O=C(Cn1nnc(-c2ccccc2)n1)OC1CCOC1=O (stereo not drawn)
  2.5	-0.3	5.5	-4.5	-4.7	0.9
- CSc1nnc(CNS(=O)(=O)c2ccc(F)cc2)n1C
  1.2	0.5	-13.6	1.9	22.0	7.7
- COc1ccc(Cl)cc1-c1nc(SCC(=O)NC2CCS(=O)(=O)C2)n[nH]1 (stereo not drawn)
  -5.4	-0.3	1.7	·	-4.6	-12.4
- CCCC(=O)Nc1ccc(NC(=O)c2ccccc2Cl)nc1
  8.1	0.9	0.9	1.8	-12.2	-27.8
- Cc1cc(C)nc(Sc2nc(C)nc3c2oc2ccccc23)n1
  7.8	0.1	-19.8	5.5	-1.9	-6.8
- Cc1ccsc1C(=O)Nc1ccc2c(c1)OCCO2
  3.4	-0.5	41.5	-2.7	0.6	-17.3
- CCOc1ccc2[nH]c3nc(SCC(=O)OC(C)C)nnc3c2c1
  -5.7	0.1	-5.6	-14.8	10.9	-0.3
- O=C(OCc1nnc(-c2ccc(Br)cc2)o1)c1ccco1
  -0.2	0.3	-3.0	5.0	9.4	-10.2
- CC(C)n1c(=O)c2c(O)cc(=O)oc2c2ccccc21
  -14.0	0.1	-5.9	-14.4	·	-2.1
- COCCNC(=O)Nc1ccc2c(c1)N(C)C(=O)CS2
  -1.6	-0.4	7.9	5.4	-7.1	-14.0
- CCOC(=O)C1(S(=O)(=O)c2ccc(Cl)cc2)CCN(Cc2ccccc2)CC1
  -11.0	-0.5	70.1	-8.2	-26.1	-16.1
- CCCc1ccc(-c2c(C)sc(NC(=O)c3ccnn3C)c2C#N)cc1
  -3.8	-1.1	0.0	-5.8	11.9	-0.5
- CCCCNC(=S)Nc1cc([N+](=O)[O-])ccc1C
  2.4	0.9	20.4	-0.6	11.2	-29.5
- COc1cc(NC(=O)CSc2nnc3ccccn23)cc(OC)c1
  -5.6	0.7	-11.9	-23.4	7.6	-1.3
- COc1ccc(CCNS(=O)(=O)c2cccs2)cc1
  -1.1	2.3	-5.6	7.5	3.2	3.2
- COC(=O)c1ccc(Sc2nnnn2-c2ccccc2)c([N+](=O)[O-])c1
  -3.6	-0.8	-8.3	-4.1	-3.9	?
- CCN1CCN(C(=O)Nc2cccc(C(F)(F)F)c2)CC1
  4.9	0.9	-3.1	10.3	-3.9	-6.8
- CCn1c(CCNC(=O)c2ccc(F)cc2)nc2ccccc21
  6.7	-0.2	-1.6	15.2	13.7	-8.7
- COc1ccc(OC)c(C2C(C(=O)c3cc4ccccc4o3)=C(O)C(=O)N2c2cc(C)on2)c1 (stereo not drawn)
  -23.3	1.3	15.7	-3.5	-3.5	-3.8
- Cn1cnnc1SCC(=O)NC1CCCc2ccccc21 (stereo not drawn)
  13.0	-0.7	-11.3	-8.6	8.6	-31.2
- Cc1cc(C)c(NC(=S)NC(=O)c2c(Cl)c(C)nn2C)c([N+](=O)[O-])c1
  -15.4	0.3	12.1	7.2	16.1	-20.8
- CC1CC(C)CN(S(=O)(=O)c2ccc3oc(=O)ccc3c2)C1 (stereo not drawn)
  1.1	0.4	9.8	5.0	-7.3	-6.5
- CC1C(=O)NC(=O)C1c1ccccc1 (stereo not drawn)
  2.8	-0.7	-0.1	0.2	-1.5	-5.5
- NC(=O)c1ccsc1NC(=O)c1ccc(S(=O)(=O)N2CCCc3ccccc32)cc1
  -5.0	-0.4	-4.5	-3.1	12.8	4.5
- COc1ccccc1/C=C/C(=O)OCC(=O)NC(=O)NC1CCCC1
  6.0	1.9	-4.1	-7.0	·	-11.1
- O=C1S/C(=C\c2ccc(O)c([N+](=O)[O-])c2)C(=O)N1c1ccccc1Cl
  ?	1.5	-6.8	-25.1	3.7	-8.4
- CCN(CC(=O)Nc1ccc2c(c1)OCCO2)C(=O)CSCC(=O)Nc1ccc(C)cc1
  3.0	0.2	2.8	6.3	7.1	10.6
- O=C(OCn1cncn1)c1ccc(Cl)cc1Cl
  -0.7	-0.8	1.7	0.9	-16.9	1.6
- CC1=CC(=C(C#N)c2nc3ccccc3s2)C=C(C)N1c1ccc(F)cc1
  1.4	5.2	34.4	1.0	-1.9	-12.3
- CSc1ncccc1C(=O)OCC(=O)c1ccc(C)s1
  -7.3	1.0	47.9	-1.3	·	3.5
- CCNc1nc(Oc2ccc(OC)cc2)cc(C(F)(F)F)n1
  19.2	1.1	7.8	16.1	-19.2	5.7
- CSCC[C@H](NS(=O)(=O)c1ccc(C)cc1)C(=O)N1CCC(C(=O)N[C@H](C(=O)O)c2ccccc2)CC1
  4.5	·	·	-24.9	-4.2	-3.6
- COCCC(=O)Nc1c(-c2ccccc2)c2cc(Br)ccc2[nH]c1=O
  3.7	0.7	-6.6	-2.3	5.0	-1.5
- Cc1cc(-c2ccc(C)c(S(=O)(=O)N3CC(=O)Nc4ccccc43)c2)on1
  -0.6	-0.2	-6.9	1.9	2.5	7.7
- O=C(Nc1ccc2ccccc2c1)c1ccc(Br)o1
  -9.0	0.1	-17.6	-3.0	0.9	-0.7
- O=C(NCCCCc1ccccc1)c1cc([N+](=O)[O-])cc([N+](=O)[O-])c1
  -20.3	0.1	-1.7	-11.6	8.8	6.4
- Oc1c(CN2CCOCC2)cc(CN2CCOCC2)c(O)c1CN1CCOCC1
  2.6	-0.5	5.0	2.1	·	-9.8
- CCOC(=O)N1CCN(C(=O)CSCC(=O)Nc2nc(-c3ccc4c(c3)OCO4)cs2)CC1
  ?	-0.4	-1.6	-28.1	28.1	23.6
- COC(=O)c1ccc(CN2CCCCC2)cc1
  7.8	-0.2	2.5	·	3.0	-29.7
- Cc1cc(C)cc(-n2ncc3c2CCCC3NC(=O)CCCn2cncn2)c1 (stereo not drawn)
  0.1	0.0	-4.1	6.1	·	-1.4
- CCOC(=O)c1c(-c2ccccc2Cl)csc1NC(=O)CSc1nc(C)cc(=O)[nH]1
  -3.6	1.2	32.8	-0.5	19.1	11.6
- NC1=NC(=Nc2cccc(S(=O)(=O)N3CCOCC3)c2)c2ccccc21
  -10.5	0.4	-6.6	-4.4	-17.0	-2.4

# Screens (PubChem)
